Compound activity: PubChem, several laboratories
Bfl-1 A1 inh = inhibitors of the anti-apoptotic protein A1, read as caspase activation | caspase activation, % (no concentration beside the values) | AID 2462 | 0.066% of 330,000 active | MEF A1-2A-BIM cells, Caspase-Glo 3/7 luminescence, 3 h; percent of clofoctol response, vehicle zero;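 active means over half of replicate activation scores above 10%, or exactly half above 10 with the replicate mean above 10; inconclusive means replicate mean below 10 yet half the replicates above 10; inactive means over half of replicates below 10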;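 further: wells of about 30 µL received 50 nL stock; many hits fall short of the cut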
E coli growth = blocks Escherichia coli growth; 0.21% of 330,000 active; OD600, 23 h; active compounds read low; AID 1053175; OD600 absorbance (no concentration beside the values);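 active means OD600 absorbance below the run mean of sample wells minus 3.6 SD, in any replicate, cut at about 0.56 in these data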;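 further: stock transfer was 300 nL into about 60 µL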
rRNA inh HTS = inhibitors of bacterial rRNA selective over humanized ribosomes. E. coli WT GFP vs humanized-ribosome RFP mutants, fluorescence, 24 h; active compounds read low; DMSO median 0, no signal -100. GFP signal change (wild-type ribosome), % (test concentration not listed). 1.6% of 350,000 active;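 active means significant combined selectivity score with lowered wild-type GFP, culture density cut under 30%, mutant RFP and density less affected; inactive means any of these conditions unmet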; further: one replicate is shown; some compounds called inactive have numbers as strong as hits
AF4-AF9 inh = inhibitors of human MLL-AF4/AF9 interaction; 0.47% of 350,000 active; P42568; inhibition, % at 10 µM; AlphaScreen, biotin-AF4 peptide binding to FLAG-AF9;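 active means every replicate reaching a set inhibition limit, whatever the replicate mean, cut at about 25% in these data; inconclusive means mean inhibition reaches that limit but some replicates miss it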;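 further: 0% = plate neutral control median and 100% = total signal loss; the record names both 10 and 1 µM as test concentration; the first replicate is given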
Target sequence (P42568 whole entry, looked up): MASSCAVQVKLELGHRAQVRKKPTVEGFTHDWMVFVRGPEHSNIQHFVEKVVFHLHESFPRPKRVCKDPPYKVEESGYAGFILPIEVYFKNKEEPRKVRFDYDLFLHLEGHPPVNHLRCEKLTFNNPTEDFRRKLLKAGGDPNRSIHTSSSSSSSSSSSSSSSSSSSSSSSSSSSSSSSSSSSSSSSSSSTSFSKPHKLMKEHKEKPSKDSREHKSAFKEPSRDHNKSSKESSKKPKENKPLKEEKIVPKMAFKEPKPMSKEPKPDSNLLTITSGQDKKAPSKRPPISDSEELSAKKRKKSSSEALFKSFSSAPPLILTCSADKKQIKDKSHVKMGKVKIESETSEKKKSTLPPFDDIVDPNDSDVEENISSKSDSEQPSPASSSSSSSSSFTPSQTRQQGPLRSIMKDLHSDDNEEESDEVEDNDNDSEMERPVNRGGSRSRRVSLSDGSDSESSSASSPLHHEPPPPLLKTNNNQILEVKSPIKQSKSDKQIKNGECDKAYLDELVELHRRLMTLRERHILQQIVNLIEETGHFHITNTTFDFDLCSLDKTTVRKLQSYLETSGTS
Beta apoptosis = beta cell apoptosis inhibition. 0.8% of 300,000 active. INS-1E cytokine-induced death, ATP luminescence, 48 h; percent of positive-control rescue, neutral wells zero. protection from apoptosis, % (concentration not given with the values);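 active means all replicates at 75% or more, or half of them and the mean; inconclusive means half reach 75% but not the mean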;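 further: 0% = cytokine-treated negative control wells and 100% = positive control rescue; higher means more ATP so stronger rescue from cytokine killing; wells of about 40 µL received 100 nL stock; the first replicate is given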
FGF22 binding = FGF22 (human) thermal shift binding; Q9HCT0; recombinant FGF22 thermal shift, SYPRO orange fluorescence; percent of sucrose octasulfate shift, DMSO zero; calls only at 9.99 µM; 1.5% of 340,000 active; AID 651658;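 active means melting point raised past a set limit in the mean and every replicate; inconclusive means no clear call; three in four hits are not shown here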
Target sequence (Q9HCT0 whole entry, looked up): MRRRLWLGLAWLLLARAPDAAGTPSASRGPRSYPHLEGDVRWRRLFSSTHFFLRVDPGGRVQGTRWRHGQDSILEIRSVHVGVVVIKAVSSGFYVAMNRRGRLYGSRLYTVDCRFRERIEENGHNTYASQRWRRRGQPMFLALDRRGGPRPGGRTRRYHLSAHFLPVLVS
UCH37 DUB inh = human UCH37 deubiquitinating enzyme inhibition; purified proteasome/UCH37, Ub-AMC cleavage fluorescence; inhibition, % (test concentration not listed); 0.33% of 330,000 active; AID 588478;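 active means mean of two replicates above 20%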;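 further: 0% = compound-free wells with enzyme and 100% = wells lacking proteasome; stock transfer was 100 nL into about 20 µL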
Target sequence (Q9Y5K5 whole entry, looked up): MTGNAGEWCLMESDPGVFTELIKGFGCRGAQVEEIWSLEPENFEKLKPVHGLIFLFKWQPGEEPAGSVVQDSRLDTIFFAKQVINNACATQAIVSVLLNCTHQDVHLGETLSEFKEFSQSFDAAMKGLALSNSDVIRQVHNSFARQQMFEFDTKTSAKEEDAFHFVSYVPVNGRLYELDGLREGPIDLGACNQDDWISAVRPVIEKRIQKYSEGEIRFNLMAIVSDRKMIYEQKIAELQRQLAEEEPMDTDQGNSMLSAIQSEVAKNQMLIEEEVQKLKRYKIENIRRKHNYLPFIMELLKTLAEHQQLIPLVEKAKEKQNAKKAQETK
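system = Proteasome-associated human UCH37 deubiquitinase | amount = 0.15 nM proteasome as dispensed | medium = pH 7.4 Tris-HCl (50 mM) with ovalbumin, ATP-MgCl2, DTT | incubation = 30 min preincubation with enzyme, 25 min cleavage at room temperature | detection = AMC fluorescence 355/460 nm | read-out basis = percent inhibition | controls = no-proteasome and no-compound wells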
T cruzi inh = blocks replication of Trypanosoma cruzi; T. cruzi beta-gal in NIH3T3, luminescence, 90 h; AID 1885; inhibition, % (concentration not given with the values); 1.4% of 300,000 active;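 active means mean inhibition across valid replicates above about 55%, limit read from the data; inconclusive means mean below that limit but half or more replicates reach it; inactive means mean below it, under half of replicates reach it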;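 further: signal also drops with host cell toxicity which is not excluded here; 0% = plate median of DMSO wells and 100% = zero luminescence signal; higher percent means less beta-gal luminescence so fewer parasites; stock transfer was 50 nL into about 50 µL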
rRNA inh HTS OD600 = second read-out of rRNA inh HTS, no call of its own (marks repeat the call); OD600 change, %; measured here: OD600 growth;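 optical density of the mix in the first replicate; 0 = DMSO median and -100 = no signal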
rRNA inh HTS RFP = also measured in rRNA inh HTS; calls as there; RFP signal change, %; measured here: RFP humanized mutant strains;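 first replicate; 0 = DMSO median and -100 = no signal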
* hit, by the source's call; i = inactive; ? = inconclusive; · = not tested or not shown. These rows are one share of the data. The share of hits here may be higher or lower than overall.

SMILES	Bfl-1 A1 inh	E coli growth	rRNA inh HTS	rRNA inh HTS OD600	rRNA inh HTS RFP	AF4-AF9 inh	Beta apoptosis	FGF22 binding	UCH37 DUB inh	T cruzi inh
CCCOc1ccc(/C=C/c2[nH]c(=O)[nH]c(=O)c2[N+](=O)[O-])cc1OCC	0.5	0.71	1	8	1.1	-15	-4	i	12	-4
CCCOc1ccc(CC(=O)NCCc2ccccc2)cc1OC	0.1	0.63	5	18	1.3	-1.2	·	i	2.7	2
CN1C(=O)/C(=C/c2ccccc2OCc2ccc(C(=O)O)cc2)NC1=S	-0.5	0.71	-19	-22	-1.3	1.7	1	·	13	13
CC1CCN(CCCNC(=O)CCNC(=O)Cn2cnc3ccccc3c2=O)CC1	-0.1	0.66	6	8	1.5	0.0	-5	i	1.5	-2
Cc1nnc(SCC(=O)Nc2ccc(S(=O)(=O)Nc3ccc(Cl)nn3)cc2)s1	1.6	0.72	6	7	-2.2	-5.5	-9	i	7.1	·
COC(=O)CN(c1ccc(OC)cc1OC)S(=O)(=O)c1ccccc1[N+](=O)[O-]	1.8	0.67	-23	-24	-2.2	3.3	-3	i	0.8	3
COC(=O)CCCCC1SCC(NC(=O)c2ccccc2)C1OC(C)=O (centres undefined)	0.3	0.64	-6	-1	-9.3	-2.2	1	i	4.5	-9
CC(C)(C)NC(=O)C1Cc2ccccc2CN1C(=O)Nc1cccc(Cl)c1 (centres undefined)	0.3	0.69	·	·	·	·	-1	·	3.4	1
COc1ccc(CN(CCCN2CCOCC2)S(=O)(=O)N(C)C)cc1OC	0.2	0.7	·	·	·	·	·	·	0.0	-2
Cc1cccc(C)c1NC(=S)NC(=O)c1ccc(Br)o1	0.6	0.7	-17	-15	-7.0	4.0	-4	i	2.8	-7
Cc1ccc2cc([N+](=O)[O-])ccc2n1	0.1	0.7	16	12	2.6	·	-1	i	5.9	-24
CC(C)C1=NN(C(=O)c2cccnc2)C(O)(C(F)(F)F)C1 (centres undefined)	-1.0	0.7	11	9	5.4	0.8	-4	i	-1.3	-4
O=C(OCC(=O)N1CCOCC1)c1ccccc1Cc1ccccc1	-6.4	0.69	-2	-7	-4.5	-1.6	-1	i	5.4	-8
COc1ccc(Cl)cc1C(=O)Nc1ccc(CN2CCCCC2)cc1	-0.1	0.66	-3	-5	0.7	1.8	0	i	3.6	23
COc1ccc(S(=O)(=O)N2CCc3ccccc32)cc1C(=O)Nc1ccc(NC(C)=O)cc1	1.0	·	-2	-1	1.4	1.0	-4	i	·	·
COc1ccc(N(C)S(=O)(=O)c2ccc(Cl)c(C(=O)NCC(C)(C)N3CCOCC3)c2)cc1	0.1	0.7	·	·	·	1.3	7	i	3.4	·
Clc1ccc(Cl)c2sc(N3CCOCC3)nc12	-0.8	0.71	·	·	·	·	3	·	3.5	-13
CCN(Cc1ccncc1)C(=O)c1ccc(Br)o1	0.5	0.7	-2	10	0.6	-0.7	·	i	1.9	-5
Cc1[nH]c2ccccc2c1Cc1nnc(SCC(N)=O)o1	0.3	0.77	6	12	-2.8	1.0	-6	i	1.4	-1
CC(C)c1ccc(/C=N/NC(=O)CC(=O)NCc2ccccc2)cc1	-0.5	·	16	10	3.1	-1.0	-5	i	·	2
COCC(C)N1CCC(Oc2ccc(C(=O)NCc3ccccn3)cc2)CC1 (centres undefined)	0.3	0.63	20	13	5.7	-0.7	-5	i	1.8	4
CCOC(=O)C1=C(C)Nc2nc(SCC)nn2C1c1ccc(OC)cc1 (centres undefined)	0.3	0.69	·	·	·	·	-5	·	-2.0	2
COc1cc(C2=NOC(C(=O)Nc3c(C)n(C)n(-c4ccccc4)c3=O)C2)cc(OC)c1OC (centres undefined)	0.3	0.71	13	14	2.7	-34	-4	i	3.8	-3
O=c1c2c(nc3c(-c4ccccc4)c[nH]n13)CCCC2	0.7	0.71	·	·	·	·	13	·	-1.6	-25
CN(CC(=O)O/N=C(\N)c1ccccn1)S(=O)(=O)c1ccccc1	0.3	0.75	7	-8	-8.1	3.2	-9	i	1.2	-17
O=C1N=c2ccccc2=C1c1sc(=S)n(Cc2ccccc2Cl)c1O	?	0.7	4	0	-0.4	0.7	·	i	6.0	-7
CC(C)=CCN1CCN(Cc2cnc(C)s2)CC1CCO (centres undefined)	1.1	0.67	10	-2	0.5	-0.1	-5	·	3.6	-15
CC1CC(=NNC(=O)C2COc3ccccc3O2)CC(C)(C)C1 (centres undefined)	0.8	·	5	3	-3.4	-4.0	-4	i	·	·
C=C1CCN([C@@H](CC(C)C)C(=O)NCc2cc(OC)c(OC)c(OC)c2)S(=O)(=O)c2ccccc21	-1.1	·	-4	-4	1.3	2.3	0	i	2.6	-7
O=C(/C=C/c1ccc([N+](=O)[O-])cc1)N1CCN(S(=O)(=O)c2cccs2)CC1	0.8	0.65	5	4	-3.3	-7.8	-1	i	2.3	11
Cn1c(N)c(C(=O)Nc2cccc(Cl)c2)c(=O)n(C)c1=O	-0.7	0.67	11	13	-3.4	2.0	-9	i	4.0	-5
COc1ccc(-c2noc(CCCOc3ccccc3)n2)cc1OC	-0.2	0.73	·	·	·	·	-2	·	3.9	13
CCOC(=O)CSc1ncnc2c1cnn2-c1ccc(C)cc1	-6.0	0.76	·	·	·	·	-1	·	6.4	-5
CCOC(=O)c1c(NC(=O)C(C)N2CCN(C(=O)c3ccco3)CC2)sc2c1CCCC2 (centres undefined)	-0.2	0.67	·	·	·	·	16	·	-2.5	47
CN(Cc1ccc(F)cc1)C(=O)c1cccc(S(=O)(=O)N2CCN(c3ccc(F)cc3)CC2)c1	0.0	0.71	-15	-24	-1.1	-1.6	·	i	0.8	9
N#C/C(=C/c1ccccc1)c1nn(CCO)c(N)c1C#N	-0.7	0.77	·	·	·	·	-3	·	5.4	3
O=C(CSc1ccc2ccccc2n1)c1ccc2c(c1)OCO2	-1.5	0.72	·	·	·	·	-4	·	3.5	0
Cc1cc(C)n(C(=O)c2cccc(S(=O)(=O)N3CCOCC3)c2)n1	0.4	0.72	·	·	·	·	-3	·	0.3	-3
Cc1cccc(N2C(=O)CC(Sc3nccc(C)n3)C2=O)c1 (centres undefined)	0.9	0.61	4	9	1.2	-1.9	·	·	-2.3	1
COc1cc2c(=O)n(CCC(=O)NCC3CCCO3)c(=O)n(CC(=O)Nc3ccc(C)cc3)c2cc1OC (centres undefined)	-0.4	0.67	-5	5	-2.9	1.7	·	i	-20	-12
COCc1cc(CN2CCCC2)c(O)c2ncccc12	-0.2	0.64	·	·	·	·	5	·	2.5	64*
Cc1cc(OCC(=O)NC2CC(C)(C)NC(C)(C)C2)c(C)cc1Br	-0.8	0.67	0	2	6.5	-3.1	3	i	1.5	13
COC(=O)c1ccccc1NC(=S)NC(NC(=O)COc1ccccc1)C(Cl)(Cl)Cl (centres undefined)	0.7	0.74	·	·	·	·	-7	·	-3.3	-2
N#CCN1CCC/C1=C\[N+](=O)[O-]	0.8	0.69	·	·	·	·	-4	·	14	-25
CCOC(=O)C1CCN(C(=O)c2ccc(C)o2)CC1	-1.1	·	6	16	0.7	-4.6	-4	i	·	·
NC(=S)NN=C(Cc1ccccc1)Cc1ccccc1	-0.9	0.74	-26	-28	-3.0	0.6	16	i	2.9	60*
CCCCCNC(=O)c1ccc2c(=O)[nH]c3c(C(=O)NCC4CCCO4)sc(=S)n3c2c1 (centres undefined)	-0.7	0.65	·	·	·	·	-2	·	9.3	-8
CC(/C=N/Nc1nc2ccccc2[nH]1)=C\c1ccccc1	-3.4	·	-3	-4	1.7	10	17	i	·	-21
COc1ccc(CCNS(=O)(=O)c2cccc([N+](=O)[O-])c2)cc1OC	0.4	0.66	5	-3	-6.3	1.8	1	i	-1.6	0
COc1cccc(-c2nc(CS(=O)(=O)CC(=O)NCc3ccc4c(c3)OCO4)c(C)o2)c1	-0.7	0.66	18	20	2.9	-1.5	-4	i	0.0	16
CCOC(=O)c1ccc(NS(=O)(=O)c2ccc3c(c2)NC(=O)CCS3)cc1	0.7	0.7	-16	-14	3.6	-11	-7	i	4.0	-8
CC(C)C(=O)Nc1cccc(C(=O)N2CCCCC2C)c1 (centres undefined)	1.1	0.73	·	·	·	·	3	·	5.8	-10
COc1ccc([C@H]2CC(=O)C=C(c3ccc(OC(F)(F)F)cc3)C2)cc1	1.2	0.76	6	-4	-3.5	-12	3	i	-0.9	·
NC(=O)C(Cc1ccccc1)NS(=O)(=O)c1ccc(N2CCCC2=O)cc1 (centres undefined)	-0.4	0.69	18	15	4.3	·	-2	·	2.7	-19
COc1ccccc1C(=O)C1CCCN(C(=O)C2CCCC2)C1 (centres undefined)	-0.5	0.68	5	4	-2.7	-21	-5	i	6.0	15
O=C(CNC(=O)c1cccc(F)c1)N/N=C/c1cccc([N+](=O)[O-])c1	0.0	·	-5	-3	0.6	1.1	0	i	·	10
O=C(CCCN1C(=O)c2cccc3cccc(c23)C1=O)N1CCN(c2ncccn2)CC1	0.1	0.68	1	0	-1.7	-2.2	11	i	1.6	-1
Nn1c(SCC(=O)N2CCCc3ccccc32)nnc1-c1ccc(Cl)cc1	0.8	0.72	·	·	·	·	1	·	-2.9	-21
O=C(COC(=O)/C=C/c1cccs1)Nc1nc(-c2ccccc2)cs1	-0.6	0.7	·	·	·	0.9	-8	i	5.7	-46
COc1cc(NC(=O)COc2cc(O)c3c(c2)OC(C)(C)CC3=O)cc(OC)c1	1.6	0.71	·	·	·	1.9	-2	i	1.8	13
Nc1nnc(C(c2ccccc2)c2ccccc2)s1	0.2	0.71	·	·	·	·	-1	·	-1.6	-2
O=C(CSc1n[nH]c(-c2cccs2)n1)N1CCCC1	-1.0	0.67	-3	0	-2.5	-13	-4	i	0.7	·

Part of the list above in order of SMILES length, smallest number first.
SMILES	Bfl-1 A1 inh	E coli growth	rRNA inh HTS	rRNA inh HTS OD600	rRNA inh HTS RFP	AF4-AF9 inh	Beta apoptosis	FGF22 binding	UCH37 DUB inh	T cruzi inh
CCOC(=O)C1CCN(C(=O)c2ccc(C)o2)CC1	-1.1	·	6	16	0.7	-4.6	-4	i	·	·
O=c1c2c(nc3c(-c4ccccc4)c[nH]n13)CCCC2	0.7	0.71	·	·	·	·	13	·	-1.6	-25
CCOC(=O)C1=C(C)Nc2nc(SCC)nn2C1c1ccc(OC)cc1 (centres undefined)	0.3	0.69	·	·	·	·	-5	·	-2.0	2
CN(CC(=O)O/N=C(\N)c1ccccn1)S(=O)(=O)c1ccccc1	0.3	0.75	7	-8	-8.1	3.2	-9	i	1.2	-17
